Screening results (PubChem BioAssay)
CDC25B-CDK2 inh – human CDC25B-CDK2/CyclinA binding inhibition; P30305+P24941; HTRF CDC25B-CDK2/CyclinA binding, anti-His/anti-Flag; stronger effect = higher value; z-score (concentration not given with the values); 0.72% of 94,000 active; AID 1259370;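 further: score is relative to mean and SD of negative controls; strong numbers were not always called active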
TAR Tat displ – HIV-1 TAR-Tat binding disruption | HIV-1 TAR RNA, Tat peptide displacement FRET; stronger effect = higher value | z-score (no concentration beside the values) | 0.6% of 100,000 active | AID 1259389;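 further: score is relative to mean and SD of negative controls; some compounds called inactive have numbers as strong as hits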
* marks the source's active call; other numbers are inactive results; nt = no result given.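 How the source made its calls: active means z-score from 3 up in half or more of its runs; inactive means the rest.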

structure | CDC25B-CDK2 inh | TAR Tat displ
Cc1nn(CCCC(=O)NCCCN2CCOCC2)c(=O)c2c1sc1ccccc12 | -0.67 | 0.33
COc1ccc(-c2cc(C(F)(F)F)n3ncc(C(=O)O)c3n2)cc1OC | 1.43 | 1.08
Cc1ccc2c(c1)CN1CN2Cc2cc(C)ccc21 | -1.13 | nt
OCCNc1nc(-c2ccccc2)c2cc(Cl)ccc2n1 | 0.77 | nt
O=c1ccc(-c2ccc(S(=O)(=O)NCc3ccc(Cl)cc3)s2)n[nH]1 | nt | -0.51
Cn1nccc1C(=O)Nc1ccc(Cl)cc1 | -1.21 | 0.47
Cc1c(Cl)cccc1NC(=O)CSc1nc2ccc(N3C(=O)c4ccc([N+](=O)[O-])cc4C3=O)cc2s1 | 2.19 | nt
COc1ccccc1CNc1nc2c(-c3ccccc3)nnn2c2ccccc12 | -2.54 | 2.06
Cc1cccc(C)c1Nc1c(-c2ccccc2O)nc2ncccn12 | -1.77 | -1.05
Cc1ccc(CNC(=O)C2CCN(c3nnc(N4CCCC4=O)s3)CC2)o1 | nt | 1.45
Cc1noc(C)c1S(=O)(=O)N1CCN(c2ccccc2)CC1 | -3.05 | 2.05
CN1CCC(OC(c2ccccc2)c2ccccc2)CC1 | nt | 2.43
CCc1ccc(C2CC(=O)c3c([nH]c(C(=O)OCC4CCCO4)c3C)C2)cc1 (centres undefined) | -0.96 | nt
CCOC(=O)CCc1ccc2c(c1)NC(c1cccc([N+](=O)[O-])c1)O2 (centres undefined) | -2.38 | nt
CCS(=O)(=O)c1ncc(Cl)c(C(=O)N(Cc2ccco2)C2CCS(=O)(=O)C2)n1 (centres undefined) | -1.44 | 1.61

Remaining list, next part:
structure | CDC25B-CDK2 inh | TAR Tat displ
O=C(Nc1ccc(Cl)cc1)c1cc2n(n1)C(C(F)(F)F)CC(c1ccc3c(c1)OCO3)N2 (centres undefined) | nt | 0.93
Cc1cccc2c1N(CC(=O)OC(C)C)C(=O)C2=O | -0.63 | 0.72
CCC12CN3CC(C)(CN(C1)C3c1cc(Br)ccc1O)C2=O (centres undefined) | -0.56 | -0.15
COc1ccc(OC)c(C(=O)CSc2nccn(-c3cccc(F)c3)c2=O)c1 | nt | -0.14
COc1ccc(OC)c(/C=C/C(=O)Oc2ccc3c(C)cc(=O)oc3c2)c1 | -5.28 | nt
O=C1C2C3c4ccccc4C(C(=O)O)(c4ccccc43)C2C(=O)N1c1ccc2ccccc2c1 (centres undefined) | -3.03 | nt
O=C(Cn1c(=O)oc2cc(Cl)ccc21)NCCCN1CCOCC1 | nt | 0.83
CC1(C)CC2(CC(C)(C(=O)CSc3nc4ccccc4s3)OC2=O)C(=O)O1 (centres undefined) | -1.45 | nt
Cc1ccc2nc(CN3CCN(S(=O)(=O)c4ccc(F)cc4)CC3)oc2c1 | nt | 1.61
Cc1ccc(Sc2cc3c(cc2NS(=O)(=O)c2ccc(C(C)C)cc2)n(C)c(=O)n3C)cc1 | nt | 0.96
CCCNC(=O)c1cc2n(n1)CC(C)(C(=O)NC1CCCC1)N(CC)C2=O (centres undefined) | nt | 1.25
Cc1ccc(CN(C(=O)c2oc3ccc(Cl)cc3c2C)C2CCS(=O)(=O)C2)o1 (centres undefined) | -0.37 | 1.91
Cc1ccc(N2C(=O)C3C4C=CC(O4)C3C2=O)cc1C (centres undefined) | -1.82 | 0.12
COc1ccc(C)cc1-n1nnc(-c2nc(-c3ccccn3)no2)c1N | nt | 0.58
C=CCNC(=O)C1CC(c2ccc(F)cc2)=NO1 (centres undefined) | -0.84 | 1.92

Complete entries, quoted from the list. Order of screens: CDC25B-CDK2 inh | TAR Tat displ
Entry for Cc1ccc2nc(CN3CCN(S(=O)(=O)c4ccc(F)cc4)CC3)oc2c1 : nt | 1.61
Entry for Cc1cccc2c1N(CC(=O)OC(C)C)C(=O)C2=O : -0.63 | 0.72
Entry for Cc1ccc(CN(C(=O)c2oc3ccc(Cl)cc3c2C)C2CCS(=O)(=O)C2)o1 (centres undefined) : -0.37 | 1.91
Entry for O=C(Nc1ccc(Cl)cc1)c1cc2n(n1)C(C(F)(F)F)CC(c1ccc3c(c1)OCO3)N2 (centres undefined) : nt | 0.93
Entry for CCCNC(=O)c1cc2n(n1)CC(C)(C(=O)NC1CCCC1)N(CC)C2=O (centres undefined) : nt | 1.25

The list goes on.
structure | CDC25B-CDK2 inh | TAR Tat displ
CN(C(=O)c1ccc(OCC(F)(F)F)c(C#N)c1OCC(F)(F)F)c1ccc(Cl)cc1 | -1.71 | nt
Cc1[nH]c2ccccc2c1C(c1cccs1)N1CCC(C(N)=O)CC1 (centres undefined) | -2.19 | nt
Cc1nc(N2CCOCC2)cc(N2CCN(C(=O)Nc3cccc(Cl)c3)CC2)n1 | -0.86 | -1.34
CN1CCN(c2ccc3nnc(CCC(=O)Nc4ccc(F)cc4)n3n2)CC1 | nt | 0.33
Cc1cc(C)cc(NC(=O)Nc2nnc(N3CC(C)CC(C)C3)s2)c1 (centres undefined) | -0.79 | 1.42
Cc1cccc(-c2nc3c4c(C)c(C)n(-c5ccc(Br)cn5)c4ncn3n2)c1 | -0.78 | 0.23
COC(=O)c1ccc(NS(=O)(=O)c2ccc(-c3ccc(=O)[nH]n3)s2)cc1 | nt | 0.95
O=c1c(NCc2cccs2)nccn1Cc1ccc(F)cc1 | nt | -0.89
CCc1ccc2oc(-c3cccc(NC(=O)c4sc5ccccc5c4Cl)c3)nc2c1 | -1.27 | nt
CCCN1CCN(C(=O)Cn2nc(CC)n3c(cc4sccc43)c2=O)CC1 | -1.63 | 0.57
COc1cccc(OCc2nc(-c3ccncc3)no2)c1 | -1.45 | 2.19
Cc1nn(CC(=O)NC2CCCC2)c(=O)c2c(-n3cccc3)n(-c3ccc(Cl)cc3)nc12 | nt | 1.72
O=C(O)c1cc(N2C(=O)c3c(Cl)c(Cl)c(Cl)c(Cl)c3C2=O)ccc1Cl | 8.58* | nt
C=CCSc1nc2c(c(=O)[nH]1)C(c1cccs1)C(C(=O)OC(C)C)=C(C)N2 (centres undefined) | -2.06 | -1.2
O=C(CCCn1c(=S)[nH]c2c(sc3ccccc32)c1=O)NCC1CCCO1 (centres undefined) | -0.19 | nt

More entries
structure | CDC25B-CDK2 inh | TAR Tat displ
CC1CCN(S(=O)(=O)c2cn(CC(=O)NC3CC3)cn2)CC1 | nt | 1.28
O=C(Cc1ccc(Cl)cc1)c1ccc(O)cc1O | -1.74 | 0.81
O=C1CCSc2ccc(S(=O)(=O)N3CCN(c4ccccc4)CC3)cc2N1 | nt | 0.76
O=C(Cn1c(=O)n(-c2ccccc2)c(=O)c2sccc21)OCc1ccccc1 | 1.34 | nt
Cc1cc(C)c2c(=O)cc(C(=O)N(Cc3ccc(Cl)cc3)C3CCS(=O)(=O)C3)oc2c1 (centres undefined) | 0.03 | 0.58
Nc1nc(F)c(Cl)c2c1Oc1ccccc1O2 | -2.1 | nt
Cc1nc2c(C)cccn2c(=O)c1Cc1nnc(SCC(=O)Nc2ccc(F)c(Cl)c2)n1C | -0.63 | -1.03
COc1ccc(OCc2nc3ccccc3n2CC(C)C)cc1 | -0.42 | 3.02
Cc1cc2c3c([nH]c2cc1S(=O)(=O)NCCCOC(C)C)CC(C)(C)CC3=O | nt | 0.06
COc1ccc(C)cc1NS(=O)(=O)c1ccc(-c2cc(C(F)(F)F)on2)s1 | nt | 1.27
CC1(C)Cc2c(C#N)c(NCC3CCCO3)nc(-c3ccccc3)c2CO1 (centres undefined) | -0.44 | nt
CN(C)c1ccc(C2Nc3ncnn3C(c3ccccc3)C2N)cc1 (centres undefined) | -1.21 | -0.73
c1ccc(-c2noc(N3CCN(Cc4ccc5c(c4)OCO5)CC3)n2)cc1 | nt | 0.24
COC(=O)Cn1c(Cl)nc2c1c(=O)n(C)c(=O)n2C | -2.06 | 0.94
Cc1sc(-n2cccc2)c(C(C)NC(=O)Nc2ccc(F)cc2)c1C (centres undefined) | -1.27 | -0.1

The listing continues:
structure | CDC25B-CDK2 inh | TAR Tat displ
O=C(Nc1nnc(SCc2cc(=O)n3ccsc3n2)s1)c1ccco1 | nt | 0.01
COc1ccc(Cl)cc1-n1c(=O)c(C#N)cc2c(=O)n3cccc(C)c3nc21 | 0.11 | 0.94
Cc1cc(C)n2c(SC(CNS(=O)(=O)c3ccc(Cl)cc3)c3ccccc3)nnc2n1 (centres undefined) | -0.32 | 0.62
COc1ccc(-c2cccc(NS(=O)(=O)c3cc(C)c(OC)c(C)c3C)c2)nn1 | nt | 0.59
COc1ccc(NC(=O)Nc2nnc(N(C)C3CCCCC3)s2)c(OC)c1 | 0.77 | 0.18
FC(F)(F)c1cccc(NC(=S)N2CCCC2)c1 | -2.75 | nt
COc1ccc(COC(=O)C2=C(C)NC3=C(C(=O)CCC3)C2c2ccc(OC)c(OC)c2)cc1 (centres undefined) | -0.99 | 1.35
Fc1ccc(Cc2nc3ccccc3[nH]2)cc1 | 2.25 | nt
Cc1ccc(-n2ccc(=O)c(C(=O)Nc3nc4ccc(S(C)(=O)=O)cc4s3)n2)cc1 | -1.39 | 1.05
CN1CCc2c(sc(N)c2C#N)C1 | nt | -0.14
CCCCC(CC)CNC(=O)CCc1nc2sc3c(c2c(=O)[nH]1)CCCC3 (centres undefined) | -3.02 | 0.77
CCc1nnc2c(Nc3cccc(O)c3)nc3ccccc3n12 | nt | -2.06
COc1ccc(N(C(=O)C2CCCCC2)S(=O)(=O)c2ccc3c(c2)n(C)c(=O)n3C)cc1 | 2.07 | -0.08
O=C(O)CCCCCNS(=O)(=O)c1ccc(Br)cc1 | nt | 1.74
Cc1cc2oc3c(c(=O)c2cc1C)C1(C(=O)N(C)c2ccccc21)N(CCO)C3=O (centres undefined) | -1.88 | 0.28

2 entries drawn at random from the list so far:
structure | CDC25B-CDK2 inh | TAR Tat displ
COc1ccc(N(C(=O)C2CCCCC2)S(=O)(=O)c2ccc3c(c2)n(C)c(=O)n3C)cc1 | 2.07 | -0.08
Cc1cc2oc3c(c(=O)c2cc1C)C1(C(=O)N(C)c2ccccc21)N(CCO)C3=O (centres undefined) | -1.88 | 0.28

Carrying on:
structure | CDC25B-CDK2 inh | TAR Tat displ
Cc1nnc(Nc2cc(Cl)cc(Cl)c2)s1 | -1.92 | nt
CNc1oc(/C=C/c2ccccc2OC)nc1C#N | -1.78 | 0.69
CCn1cc(-c2ccc3c(c2)CN2CCC(O)C2=N3)cn1 (centres undefined) | nt | 1.44
CC1=C(c2cccc(Br)c2)S(=O)(=O)N=C1Nc1ccc(C)cc1C | -0.65 | 0.31
CCNc1nc2c(c(=O)n(C)c(=O)n2C)n1CC(O)COc1ccccc1 (centres undefined) | -2.72 | 1.37
Cc1c(C(=O)Cc2c(O)c3ccccc3oc2=O)sc2nc(C(F)(F)F)nn12 | -0.93 | nt
CCN(CC)C(=O)Cn1c(=O)n(CC2CCC(C(=O)N3CCCCC3)CC2)c(=O)c2sccc21 (centres undefined) | nt | -1.3
CNc1ccccc1C(=O)NCCc1ccncc1 | -2.52 | nt
Fc1cccc(Cl)c1Cn1c(-c2ccco2)nc2ccccc21 | 1.47 | -3.82
Cc1cc(-c2ccc(S(=O)(=O)Nc3ccc(F)cc3C)s2)on1 | nt | -0.51
Fc1ccc(CN2CCCN(Cc3ccc(F)cc3)C2c2csnn2)cc1 | -1.63 | nt
Cc1cccc(CSc2nncn3c2cc2sccc23)c1 | nt | 1.33
CCCc1cnc(N2CCN(CC(=O)Nc3ccccc3)CC2)nc1 | -1.38 | nt
COc1cc(C2CC(=O)Nc3c2c(C)nn3-c2nncc(-c3ccc(C)cc3)n2)ccc1OC(C)C (centres undefined) | nt | 0.88
CCc1ccccc1NS(=O)(=O)c1cc(-c2cnc(C3CC3)o2)ccc1C | nt | 1.8

Next structures follow:
structure | CDC25B-CDK2 inh | TAR Tat displ
Clc1ccc(C(CNc2nn3cnnc3c3ccccc23)N2CCCCC2)cc1 (centres undefined) | -1.04 | -1.39
COc1ccc(S(=O)(=O)N2CCc3cc4cc(C)ccc4nc32)cc1 | -1.78 | -2.59
Cc1ccc(S(=O)(=O)Nc2ccc(N(C)C)cc2)cc1 | -1.35 | 1.05
COc1ccc(C2=NS(=O)(=O)N(C)C(C(=O)NCC3CCCO3)=C2)cc1OC (centres undefined) | -2.47 | 2.08
O=C(Nc1ccccc1Oc1ccccc1)c1cc2cc([N+](=O)[O-])ccc2oc1=O | -1.59 | nt
O=C(NCCCn1ccnc1)C(=O)c1c[nH]c2ccccc12 | -1.6 | nt
CN1CCN(CCCNC(=O)CN2C(=O)CCn3nc(-c4cn(C)c5ccccc45)cc32)CC1 | nt | 1.07
CCCC12CN3CC(CCC)(CN(C1)C3c1ccco1)C2=O (centres undefined) | -1.15 | nt
CCN1CCN(CCCNS(=O)(=O)c2ccc3c(c2)CCCC(=O)N3)CC1 | nt | 1.55
CC(C)(C)SCCNC(=O)/C=C/c1ccccc1 | -0.87 | nt
CN1CCc2c(n(CC(O)CN3C(=O)c4ccccc4S3(=O)=O)c3ccccc23)C1=O (centres undefined) | 19.4* | 0.59
CCOC(=O)C1=C(C)NC(S)=C(C#N)C1c1ccsc1 (centres undefined) | -3.66 | nt
CCOCCc1nn2c(=O)cc(COC(=O)COc3ccc(C)cc3)nc2s1 | nt | -1.33
CC1CCN(c2nc3nonc3nc2N2CCC(C)CC2)CC1 | -2.96 | 0.22
Cc1ccccc1-c1cc(=O)c2cc(Cl)ccc2o1 | 1.32 | 1.6

(listing goes on)
structure | CDC25B-CDK2 inh | TAR Tat displ
Cc1cc2c(Oc3cccc(F)c3)ncnc2s1 | nt | 0.33
Cc1cc(S(=O)(=O)Nc2cccc(F)c2)c(C)c(S(=O)(=O)c2ccccc2)c1 | -1.5 | 1.1
COc1ccc(/C(O)=C2\C(=O)C(=O)N(CCCN3CCOCC3)C2c2ccc(OC)cc2)cc1 (centres undefined) | 0.02 | 1.6
O=C(Cn1c(=O)n(-c2ccccc2)c(=O)c2sc3ccccc3c21)NC1CCCC1 | -1.33 | -0.4
Cc1nc(-c2ccc(S(=O)(=O)N3CCN(c4nc(-c5ccccc5)ns4)CC3)s2)cs1 | -2.36 | nt
